Screening data as filed in PubChem.
TRPML1 agonist: agonists of human TRPML1 channel; Q9GZU1; TRPML1-expressing cells, Ca2+ dye fluorescence, FDSS; host cell line not named in the record; reference of the full effect not given here; activation, % (no concentration beside the values); 410,000 tested, 0.12% active; AID 624414; in the data active = activation above about 50%; inconclusive = about 30% to 50%; inactive = below about 30%; also: 0% is about no effect; the text of the record puts the active cut at 80%
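Tetracycline-induced TRPML1-DL cells are seeded and incubated overnight before loading with a no-wash Ca2+ dye and quencher. Agonist activity is taken from the 110 s fluorescence read following compound pin-transfer on an FDSS, before EC80 54-4 challenge.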
CtBP-E1A blk: CtBP/E1A binding inhibition. AlphaScreen GST-E1A/His-CtBP binding, 1536-well; active compounds read low; control for the full effect not named in the record. activity change, % (test concentration not listed). 340,000 tested, 0.49% active. AID 651724; in the data active means activity change below about -65%; inconclusive means about -30% to -65%; inactive means above about -30%; also: % is scaled to controls: 0 for no effect and ±100 for the full control effect
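AlphaScreen with 125 nM GST-E1A and 125 nM His-CtBP (5X stocks) in Tris pH 8.0, 300 mM NaCl, BSA, Tween 20, TCEP. Compounds preincubated 2 h at 37 deg C, then glutathione donor/nickel acceptor beads added for 1 h at 37 deg C in dark.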
TRPML1 inh: blocks the human TRPML1 channel; Q9GZU1; TRPML1-inducible cells, Ca2+ dye fluorescence, FDSS; active compounds read low; inhibition of EC80 agonist-evoked calcium signal; activity change, negative = inhibition, % (no concentration beside the values); 390,000 tested, 0.02% active; in the data active means activity change below about -50%; inconclusive means about -30% to -50%; inactive means above about -30%;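 also: stimulus is agonist 54-4 at its EC80 concentration; % is scaled to controls: 0 for no effect and ±100 for the full control effect; compound concentration not given in the record; the text of the record puts the active cut at -80%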
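Tet-induced TRPML1-DL cells loaded with Ca8 no-wash calcium dye were read kinetically on FDSS. Compound addition was followed by EC80 agonist 54-4 (4 uM final); inhibition was read over 110 s.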
D2 agonist: agonists of human D2 dopamine receptor (beta-arrestin); DiscoveRx PathHunter D2 beta-arrestin, luminescence, 90 min; 100% = 57 uM dopamine signal; activation, % (concentration not given with the values); 360,000 tested, 0.084% active; in the data active = activation above about 40%; inconclusive = about 15% to 40%; inactive = below about 15%; also: compound concentration not given in the record; the text of the record calls up to 30% inactive
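DiscoveRx PathHunter D2 beta-arrestin cells (2,100/well) attached overnight, then compound-stimulated 90 min at 37 C in HBSS/10 mM HEPES/0.1% Tween-20 buffer; beta-galactosidase complementation read by luminescence after 1 h at ambient temperature. Dopamine 57 uM final (EC100) as control.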
PINK1 expr mod: PINK1 expression modulation; 410,000 tested, 0.2% active; PINK1 immunofluorescence, high-content cytometry, 24 h; Potency, µM (highest dose often 76.6 µM), for the others: at the highest dose activation (PINK1 increase), hits mostly activators; AID 624263; active = well fitted activation curve with a large enough effect; inconclusive = small, poorly fitted or top-dose-only effect; inactive = flat fitted curve, though single readings scatter; cell line not stated here;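 also: potency is read from the fitted curve at half-maximal effect; % of control where 0% means no effect; nearly all actives have a fitted effect of over 65% in size; a mitochondrial uncoupler was the plate control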
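PINK1 protein level read as immunofluorescence by microplate cytometer in a fixed, stained stable cell line after 24 h exposure to five compound concentrations, with CCCP as control.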
Six1-Eya2 inh: Six1/Eya2 interaction inhibition; 360,000 tested, 0.56% active; activity change, % (test concentration not listed); AlphaScreen GST-Six1/His-Eya2 binding, biochemical; active compounds read low; control for the full effect not named in the record; in the data active = activity change below about -65%; inconclusive = about -30% to -65%; inactive = above about -30%; also: % is scaled to controls: 0 for no effect and ±100 for the full control effect
Target sequence (O00167 whole entry, looked up): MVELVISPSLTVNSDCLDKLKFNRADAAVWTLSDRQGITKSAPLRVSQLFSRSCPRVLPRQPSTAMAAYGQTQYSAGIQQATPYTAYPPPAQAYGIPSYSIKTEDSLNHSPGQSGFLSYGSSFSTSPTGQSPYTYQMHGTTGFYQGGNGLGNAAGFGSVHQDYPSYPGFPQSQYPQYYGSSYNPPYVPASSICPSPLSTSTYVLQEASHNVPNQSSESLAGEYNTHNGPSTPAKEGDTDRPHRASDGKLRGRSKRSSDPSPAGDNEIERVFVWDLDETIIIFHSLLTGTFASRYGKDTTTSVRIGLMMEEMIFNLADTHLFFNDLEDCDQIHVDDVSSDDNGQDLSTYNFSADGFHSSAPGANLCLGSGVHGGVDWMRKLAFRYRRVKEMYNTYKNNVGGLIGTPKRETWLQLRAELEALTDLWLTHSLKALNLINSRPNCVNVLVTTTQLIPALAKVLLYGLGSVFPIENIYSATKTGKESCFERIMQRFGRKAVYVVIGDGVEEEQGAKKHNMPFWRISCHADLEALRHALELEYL
Target sequence (Q15475 whole entry, looked up): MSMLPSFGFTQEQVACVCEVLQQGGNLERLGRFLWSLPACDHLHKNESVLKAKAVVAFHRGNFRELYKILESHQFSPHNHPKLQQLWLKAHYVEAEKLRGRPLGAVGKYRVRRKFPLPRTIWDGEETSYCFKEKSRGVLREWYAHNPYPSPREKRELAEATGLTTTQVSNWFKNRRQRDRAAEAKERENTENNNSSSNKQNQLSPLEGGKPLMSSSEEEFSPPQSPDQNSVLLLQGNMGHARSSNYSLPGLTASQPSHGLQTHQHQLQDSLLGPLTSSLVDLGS
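GST-Six1 + His-Eya2 (5X stock: 250/500 nM); Tris pH 8.0, 300 mM NaCl, 0.05% BSA, 0.02% Tween 20; GSH donor/Ni acceptor beads; 1 h 37 °C dark; AlphaScreen readout.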
An asterisk follows results filed as active; ? = inconclusive; . = no result given; & = joins results of further samples; [ ] = dose if it differs, or a comment.

canonical_smiles,TRPML1 agonist,CtBP-E1A blk,TRPML1 inh,D2 agonist,PINK1 expr mod,Six1-Eya2 inh
COc1ccc(CCNC(=O)c2ccc3c(c2)S(=O)(=O)N=C2CCCCCN23)cc1,-0.4,9.5,7.3,-3.7,-0.9%,1.2
Cc1cc(C)cc(NC(=O)c2cc3c(=O)n(Cc4ccco4)ccc3nc2C)c1,1.6,.,-3.0,.,0.8%,.
Cc1ccc(CN2CCN(C(=O)c3ccco3)CC2)cc1,-1.3,1.6,1.4,69.8*,0.9%,2.2
O=C(Nc1nc2c(cc3c4c(cccc42)CC3)s1)c1ccccc1Cl,2.2,12.5,15.9,-0.9,5.5%,19.1
Cn1c(=O)c(-[n+]2ccccc2)c([O-])c2ccccc21,-0.3,-2.3,6.8,-1.0,-0.8%,-2.2
CCCCNC(=O)C1(C)CCC(=O)N1CCOc1ccccc1 (stereo not drawn),0.2,4.2,15.0,-4.9,1.3%,3.0
CCCCC[C@@H]1C=C(C(=O)O)[C@H](c2ccc(F)cc2)N1S(=O)(=O)c1ccc(C)cc1,0.1,3.6,-8.0,1.7,-1.0%,-0.4
CCOC(=O)Nc1sc2c(c1C(N)=O)CCC(C)C2 (stereo not drawn),1.3,.,-11.2,2.1,4.3%,3.6
COc1ccc(N2CCN(c3ccc(NC(=O)c4ccc5c(c4)OCO5)cc3C#N)CC2)cc1,0.4,0.5,19.6,-1.3,2.9%,0.0
O=C(OCC(=O)c1ccc[nH]1)c1cncc(Br)c1,-0.5,.,-2.3,0.5,2.1%,-2.8
O=C(CCN1c2ccccc2Sc2ccccc21)Nc1ccccc1,0.5,-13.3,3.3,0.7,0.2%,-11.5
O=C(COc1ccc(Cl)cc1)N(Cc1ccco1)c1ccccn1,-0.8,.,?,.,0.7%,.
Fc1ccc(/C=N/Nc2cc(N3CCOCC3)ncn2)cc1,-0.9,-16.8,-4.9,1.1,5.6%,-15.0
Cn1nnc(NC(=S)NC(=O)c2cccc3c(Cl)cccc23)n1,-0.6,-21.2,19.0,-10.3,-0.4%,-11.6
COc1ccc(C(c2nnnn2C(C)(C)C)N2CCN(c3nc4ccccc4s3)CC2)cc1OC (stereo not drawn),-0.9,2.5,-8.1,-1.1,-0.3%,24.8
COc1cccc(CNC(=O)C(=O)NCC(c2cccs2)S(=O)(=O)c2cccs2)c1 (stereo not drawn),-0.1,.,4.9,.,-0.3%,.
CCOC(=O)c1ccccc1NC(=O)c1cc2ccc3cccnc3c2[nH]1,0.5,.,65.2,.,11.0%,.
COc1ccc(C(=S)Nc2ccc(C)cc2)cc1,0.1,-5.8,-3.8,-4.2,3.5%,0.0
COc1ccc([C@H]2C[C@@H](n3cc(C4CC4)nn3)[C@H](O)CN2C(=O)C2CCCCC2)cc1,-0.4,1.8,8.9,-3.5,0.5%,2.8
CN1CC(=O)NC1=NC(=O)c1ccc(Cl)c(S(=O)(=O)N2CCCCCC2)c1,-0.1,-2.4,36.2,-1.3,0.5%,-8.0
CNS(=O)(=O)c1cccc(C(=O)OCc2cc(Cl)cc3c2OCOC3)c1,0.9,5.6,46.9,-0.6,16.0%[38.3 µM],-0.3
COc1ccc(OC)c(NC(=O)Cn2cnc3sc(C)c(S(=O)(=O)N4CCN(c5ccccc5OC)CC4)c3c2=O)c1,-0.2,.,1.8,.,1.9%,.
COc1c(Br)cc(Br)cc1C(=O)O,-0.2,6.3,-6.5,-0.9,0.6%[38.3 µM],0.0
O=[N+]([O-])c1ccc(NN=CC2CCCCCC2)c([N+](=O)[O-])c1,-0.3,-23.9,.,.,7.8%,-23.8
O=S(=O)(Nc1cccc2ccccc12)c1ccccc1,2.1&0.7,5.8,-5.8&-7.0,4.2,2.1%&1.0%,-1.0
COc1cc2c(cc1NC(=O)c1cc(-c3cccnc3)nc3ccc(C)cc13)oc1ccccc12,-0.1,-13.4,-3.7,-1.2,14.3%[38.3 µM],-1.1
COc1ccccc1OCCNC(=O)c1ccc(S(=O)(=O)N(C)C)cc1,0.2,-6.3,4.7,-1.0,-0.2%[38.3 µM],0.9
Cc1cnc(NC(=O)CN(C)S(=O)(=O)c2ccc(Cl)cc2)s1,-0.5,-5.2,-13.2,-2.8,2.4%,-0.2
COC(=O)c1cc(NC(=O)C2CC=CCC2C(=O)O)cc(C(=O)OC)c1 (stereo not drawn),1.3,-2.9,2.7,-2.2,-3.2%,0.3
CN(Cc1ccccc1)C(=O)c1cccc(NC(=O)Cc2cccc(NC(=O)C3CCN(C(=O)C4CCC4)CC3)c2)c1,-0.8,0.6,17.9,-0.1,-0.2%,-5.0
CCOC(=O)c1nc[nH]c1C,2.4,-1.0,6.4,-0.2,5.6%[38.3 µM],0.8
COc1ccc(COC(=O)c2cc([N+](=O)[O-])ccc2N2CCOCC2)cc1F,1.6,-20.3,1.9,-0.9,-2.3%,-21.7
O=C(Nc1ccc2c(c1)OCO2)C1CC(c2ccccc2O)=NO1 (stereo not drawn),-0.2,1.1,6.8,7.0,0.4%,2.2
COc1ccc(C(=O)COC(=O)CN2C(=O)NC(C)(C)C2=O)cc1OC,-0.4,0.0,2.5,-0.1,.,20.7
COC(=O)C1=C(C)N(c2ccc(Cl)c(Cl)c2)C(=O)C1,-0.4,0.0,-10.1,-3.5,1.4%,-3.2
CCOc1ccc(S(=O)(=O)NCc2ccc(F)cc2)c2cccnc12,0.4,-3.6,-9.1,-1.3,-2.4%,2.8
O=c1oc2ccccc2cc1NCc1ccccc1O,1.4,-4.6,17.1,1.6,5.2%,-7.6
CCCCN(C=O)c1c(CC)nc2c(OCCOc3ccccc3)cccn12,0.4,-5.9,.,-6.4,2.8%,1.1
Cc1ccc(S(=O)(=O)N2CCCCC2C(=O)O)cc1 (stereo not drawn),1.4,-1.1,-20.1,-0.9,-2.6%,-0.2
Cc1ccc(OC(F)F)c(NC(=O)Nc2cccc(C(F)(F)F)c2)c1,-0.3,9.3,-8.1,4.9,?,16.6
CCCCCC(=O)N/N=C(\C)c1ccc(N2CCCCC2)cc1,-0.9,4.7,-2.5,-6.1,1.9%,-0.4
Cc1ccc(S(=O)(=O)NCC(Nc2cccc(Cl)c2)c2ccccc2)cc1 (stereo not drawn),-0.1,.,1.2,.,?,.
COc1cccc(C(=O)N2CCn3c2nc2ccccc23)c1,-0.3,1.4,1.3,-4.1,0.9%,5.1
COc1ccccc1C(=O)NC(=O)COC(=O)C1CC1,1.6,6.4,-8.4,-2.5,-0.7%,2.0
O=C(O)COc1ccc2c(c1)CCCC2,0.7,10.7,1.1,-3.3,?,6.0
CC(C)OCCCN1CC(=O)N2[C@@H](Cc3c([nH]c4ccccc34)C2(C)C)C1=O,-0.1,-7.8,-5.8,-0.3,1.5%,1.8
O=C1CSC(c2c(F)cccc2Cl)N1c1cccc(F)c1 (stereo not drawn),1.8,-7.7,22.0,4.5,.,2.5
CCOC(=O)Cc1csc(NC(=O)/C=C/c2cccc(Br)c2)n1,0.1,-11.2,6.6,-3.6,6.5%,-3.1
Cn1nc(C(=O)N2CCN(c3ccccn3)CC2)c2ccccc2c1=O,-1.0,0.0,2.6,-2.3,1.0%,2.2
c1cc2[nH]snc2c2nc(C3CC3)nc12,0.5,-29.0,-9.3,-1.2,-3.0%[38.3 µM],-29.0

Other compounds:
canonical_smiles,TRPML1 agonist,CtBP-E1A blk,TRPML1 inh,D2 agonist,PINK1 expr mod,Six1-Eya2 inh
CCCCN(CCCC)S(=O)(=O)c1ccc2oc(C(=O)NCc3ccccc3)c(C)c2c1,3.6,.,14.6,.,0.3%,.
C[C@@H]1CC=C[C@@H]2[C@H]1C(=O)N(Cc1ccccc1)[C@H]2c1cccc(C#Cc2ccccc2)c1,3.4,-0.8,14.7,-4.9,20.0%,-1.2
Cc1cc(Cl)ccc1C(=O)C1CCCN(C(=O)/C=C/c2cnn(C)c2)C1 (stereo not drawn),0.9,.,-10.5,1.3,-0.1%,2.7
COc1ccc(Br)cc1C(=O)Nc1cccc2ccc(C)nc12,-0.3,.,-6.6,.,-0.1%,.
Cc1cccc(N2CCC(N3CCN(C4CCCCC4)C(CCO)C3)CC2)c1C (stereo not drawn),-0.8,3.7,1.0,3.8,3.6%,8.2
COC(=O)c1ccc(-c2cc3onc(-c4ccccc4)c3c(=O)n2C)cc1,-0.7,2.0,32.6,2.0,1.8%,-3.7
COc1ccccc1N1CCN(CCOc2c(OC)cccc2OC)CC1,2.9,-4.2,-18.2,-4.2,-3.2%,8.9
Cc1ccc(C(C)NC(=O)C2CCCC2)c(C)c1 (stereo not drawn),-0.2,7.7,-0.5,-2.4,0.5%,0.5
COCCNc1ncnc2c1ncn2[C@H]1CN(Cc2cc(OC)c(OC)c(OC)c2)C[C@@H](CO)O1,1.1,-15.3,.,3.0,0.2%,4.6
Oc1c(C(c2ccc(Br)cc2)N2CCOCC2)sc2nc(-c3ccco3)nn12 (stereo not drawn),1.9,.,-9.5,.,-0.3%,.
Cn1c2c(c(=O)n(C)c1=O)CS(=O)c1ccccc1N2 (stereo not drawn),-0.6,2.8,.,-3.2,2.1%,-2.0
Cc1ccc(C(=O)O)cc1N=Cc1cc(Br)cc(Br)c1O,1.2,-3.0,39.8,-8.7,-1.1%,0.2
CCOc1ncccc1C(=O)Nc1nnc(C(CC)CC)s1,2.9,-3.3,16.6,1.9,-0.7%,14.7
Cc1cccc(N(CC(=O)NCCSc2ccc(Cl)cc2)S(=O)(=O)c2ccccc2)c1C,2.9,.,62.4,.,-1.5%,.

Random excerpt: two records from the list.
canonical_smiles,TRPML1 agonist,CtBP-E1A blk,TRPML1 inh,D2 agonist,PINK1 expr mod,Six1-Eya2 inh
C[C@@H]1CC=C[C@@H]2[C@H]1C(=O)N(Cc1ccccc1)[C@H]2c1cccc(C#Cc2ccccc2)c1,3.4,-0.8,14.7,-4.9,20.0%,-1.2
Cc1cc(Cl)ccc1C(=O)C1CCCN(C(=O)/C=C/c2cnn(C)c2)C1 (stereo not drawn),0.9,.,-10.5,1.3,-0.1%,2.7
